High-throughput results deposited in PubChem by several laboratories.
RanGTP-Impb inh: disruptors of Ran-importin-beta complex formation – biochemical, FRET, CFP-Ran, YFP-importin-beta, homogeneous, primary screen; 300,000 compounds, 1.1% hits; cell-free CFP-Ran/YFP-importin-beta FRET ratio; inhibition, % (no concentration beside the values); AID 2216;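 active means most replicates above 15%; inconclusive means exactly half above 15%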;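 further: 0% = DMSO wells and 100% = Ran loaded with GDP instead of GTP; wells of about 40 µL received 100 nL stock; the first replicate is given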
UCH37 inh: human UCH37 deubiquitinating enzyme inhibition; Q9Y5K5; purified proteasome/UCH37, Ub-AMC cleavage fluorescence; inhibition, % (test concentration not listed); 330,000 compounds, 0.33% hits;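 active means mean of two replicates above 20%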;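 further: 0% = compound-free wells with enzyme and 100% = wells lacking proteasome; stock transfer was 100 nL into about 20 µL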
Target sequence (Q9Y5K5 whole entry, looked up): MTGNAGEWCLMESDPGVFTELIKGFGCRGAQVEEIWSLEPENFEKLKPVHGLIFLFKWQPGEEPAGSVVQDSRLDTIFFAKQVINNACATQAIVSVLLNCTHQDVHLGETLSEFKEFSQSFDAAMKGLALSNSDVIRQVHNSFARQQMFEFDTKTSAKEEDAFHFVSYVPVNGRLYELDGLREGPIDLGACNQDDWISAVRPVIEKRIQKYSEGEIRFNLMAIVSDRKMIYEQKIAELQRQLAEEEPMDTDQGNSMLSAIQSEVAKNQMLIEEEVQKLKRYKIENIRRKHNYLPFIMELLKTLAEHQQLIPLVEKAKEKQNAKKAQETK
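system = Proteasome-associated human UCH37 deubiquitinase | amount = 0.15 nM proteasome as dispensed | medium = pH 7.4 Tris-HCl (50 mM) with ovalbumin, ATP-MgCl2, DTT | incubation = 30 min preincubation with enzyme, 25 min cleavage at room temperature | detection = AMC fluorescence 355/460 nm | read-out basis = percent inhibition | controls = no-proteasome and no-compound wells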
LANA-H2B inh: blocks KSHV LANA binding to histone H2A/H2B; Q9QR71; 320,000 compounds, 0.6% hits; AID 2629; inhibition, % (concentration not given with the values); cell-free LANA-H2A/H2B peptide, fluorescence polarization; in the data active means inhibition mostly above about 10%, no sharp cut-off; inactive means mostly below about 6.7%;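 further: stock transfer was 7.5 nL into about 10 µL; 0% = median of vehicle wells and 100% = median of positive control wells; one replicate is shown; the record names a cut of 25% in any replicate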
T cruzi repl: blocks replication of Trypanosoma cruzi; T. cruzi beta-gal in NIH3T3, luminescence, 90 h; inhibition, % (test concentration not listed); 300,000 compounds, 1.4% hits;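 active means mean inhibition across valid replicates above about 55%, limit read from the data; inconclusive means mean below that limit but half or more replicates reach it; inactive means mean below it, under half of replicates reach it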;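 further: signal also drops with host cell toxicity which is not excluded here; 0% = plate median of DMSO wells and 100% = zero luminescence signal; higher percent means less beta-gal luminescence so fewer parasites; stock transfer was 50 nL into about 50 µL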
Bfl-1 A1 inh: inhibitors of the anti-apoptotic protein A1, read as caspase activation. 330,000 compounds, 0.066% hits. AID 2462. caspase activation, % (test concentration not listed). MEF A1-2A-BIM cells, Caspase-Glo 3/7 luminescence, 3 h; percent of clofoctol response, vehicle zero;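 active means over half of replicate activation scores above 10%, or exactly half above 10 with the replicate mean above 10; inconclusive means replicate mean below 10 yet half the replicates above 10; inactive means over half of replicates below 10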;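 further: wells of about 30 µL received 50 nL stock; many hits fall short of the cut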
B2AR ag: human beta-2 adrenergic receptor agonism by FAP; Am2.2-beta2AR cells, FAP receptor internalization, flow cytometry; reference of the scale not given here; response, % (concentration not given with the values); 340,000 compounds, 0.43% hits; AID 504454;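 active means response above a set limit, near 3 SD of response in nonfluorescent compounds, cut at about 42% in these data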;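 further: stock transfer was 100 nL into about 11 µL; a reference agonist was the positive control; negative values mostly stem from fluorescent compounds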
Target sequence (P07550 whole entry, looked up): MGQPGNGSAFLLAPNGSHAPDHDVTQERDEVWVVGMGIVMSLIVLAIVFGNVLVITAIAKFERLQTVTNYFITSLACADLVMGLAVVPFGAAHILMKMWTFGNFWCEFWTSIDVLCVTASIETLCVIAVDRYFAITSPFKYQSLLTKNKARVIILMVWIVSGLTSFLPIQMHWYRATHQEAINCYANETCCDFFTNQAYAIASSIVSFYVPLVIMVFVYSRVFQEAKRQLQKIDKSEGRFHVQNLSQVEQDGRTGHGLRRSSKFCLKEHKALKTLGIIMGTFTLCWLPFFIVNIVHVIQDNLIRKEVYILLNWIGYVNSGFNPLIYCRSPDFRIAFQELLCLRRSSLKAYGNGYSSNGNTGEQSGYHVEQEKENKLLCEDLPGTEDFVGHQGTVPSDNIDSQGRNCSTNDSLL
Calb FLC: C. albicans growth modulation with fluconazole. AID 1979. C. albicans CaCi-2 (fluconazole-resistant clinical isolate) + fluconazole, Alamar Blue growth, 48 h. growth inhibition, % (no concentration beside the values). 300,000 compounds, 0.57% hits;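 active means most replicates above 75%; inconclusive means exactly half above 75%; inactive means most below 75%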;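 further: all wells also contain fluconazole at 8 µg/ml as a sub-toxic cotreatment; 0% = median of DMSO wells and 100% = median of geldanamycin control wells; wells of about 8 µL received 7.5 nL stock; the first replicate is given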
Beta apoptosis: beta cell apoptosis inhibition | INS-1E cytokine-induced death, ATP luminescence, 48 h; percent of positive-control rescue, neutral wells zero | protection from apoptosis, % (concentration not given with the values) | 300,000 compounds, 0.8% hits | AID 435005;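 active means all replicates at 75% or more, or half of them and the mean; inconclusive means half reach 75% but not the mean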;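 further: 0% = cytokine-treated negative control wells and 100% = positive control rescue; higher means more ATP so stronger rescue from cytokine killing; wells of about 40 µL received 100 nL stock; the first replicate is given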
Numbers without * were called inactive; i = inactive; ? = inconclusive; . = no result given.

Start of the data: the first 6 entries (preview)
SMILES	RanGTP-Impb inh	UCH37 inh	LANA-H2B inh	T cruzi repl	Bfl-1 A1 inh	B2AR ag	Calb FLC	Beta apoptosis
Cc1ccccc1C(=O)Nc1c(C(=O)N2CCN(C)CC2)cnn1-c1ccccc1	3.2	1.5	-9.2	-25.2	0.4	0.6	-0.1	-7.1
O=C(CSc1nnc(-c2ccccc2)n1Cc1ccccc1)N1CCCC1	2.3	6.6	-2.5	-1.2	0.6	-9.6	6.1	-3.7
CC1CCN(CCC(=O)N/N=C/c2ccc([N+](=O)[O-])cc2)CC1	-1.4	.	2.6	10.4	0.2	-0.3	28.5	-1.7
CC(=C/c1ccc(C(C)C)cc1)/C=N/NC(=O)Cn1nc(C)cc1C	?	.	-6.8	-0.4	0.2	2.1	4.0	0.5
CC12C=CC3(O1)C(C(=O)N(c1ccccc1)C3C(=O)NC1CCCC1)C2C(N)=O (stereo unspecified)	0.1	0.8	4.4	-8.6	0.3	4.1	-2.6	-6.3
O=C(O)C(C/C(=N/O)c1ccc(Br)cc1)P(=O)(c1ccccc1)c1ccccc1 (stereo unspecified)	2.8	.	14.7*	-6.5	0.8	1.2	-1.6	2.4

Results, previewed entries included:
SMILES	RanGTP-Impb inh	UCH37 inh	LANA-H2B inh	T cruzi repl	Bfl-1 A1 inh	B2AR ag	Calb FLC	Beta apoptosis
Cc1ccccc1C(=O)Nc1c(C(=O)N2CCN(C)CC2)cnn1-c1ccccc1	3.2	1.5	-9.2	-25.2	0.4	0.6	-0.1	-7.1
O=C(CSc1nnc(-c2ccccc2)n1Cc1ccccc1)N1CCCC1	2.3	6.6	-2.5	-1.2	0.6	-9.6	6.1	-3.7
CC1CCN(CCC(=O)N/N=C/c2ccc([N+](=O)[O-])cc2)CC1	-1.4	.	2.6	10.4	0.2	-0.3	28.5	-1.7
CC(=C/c1ccc(C(C)C)cc1)/C=N/NC(=O)Cn1nc(C)cc1C	?	.	-6.8	-0.4	0.2	2.1	4.0	0.5
CC12C=CC3(O1)C(C(=O)N(c1ccccc1)C3C(=O)NC1CCCC1)C2C(N)=O (stereo unspecified)	0.1	0.8	4.4	-8.6	0.3	4.1	-2.6	-6.3
O=C(O)C(C/C(=N/O)c1ccc(Br)cc1)P(=O)(c1ccccc1)c1ccccc1 (stereo unspecified)	2.8	.	14.7*	-6.5	0.8	1.2	-1.6	2.4
Cc1c(CCO)c(=O)[nH]n1S(=O)(=O)c1ccc([N+](=O)[O-])cc1	-1.0	4.8	-4.8	20.6	0.2	-5.8	-3.8	-2.2
CCOC(=O)c1c(C)nsc1NC(=O)c1ccco1	3.9	-0.6	1.2	-0.5	1.0	-15.7	5.8	.
S=c1sc2ccccc2n1CCc1ccncc1	?	0.0	-2.1	-3.8	-1.1	0.7	8.8	-2.5
COc1ccc(N(CC(=O)NC2CCCCCC2)S(=O)(=O)c2ccccc2)cc1Cl	0.1	1.8	1.0	36.3	1.4	0.7	-10.0	.
CC1CCCCC1NC(=O)/C(C#N)=C/c1ccc(F)c(F)c1 (stereo unspecified)	-0.4	5.7	4.3	-3.0	0.9	3.9	4.7	4.7
Cc1c(C(=O)N2CCCCC2)c(S(=O)(=O)NCCc2ccccc2)c(C)n1C	-0.4	1.8	-5.1	15.5	-0.5	-0.9	6.9	-9.5
Cc1cccc(NS(=O)(=O)c2ccc(C3CCCCC3)cc2)c1	7.9	1.9	-5.3	14.7	0.2	-1.5	-0.7	64.0
COc1ccc(C2=Nn3c(nnc3-c3cc(C)[nH]n3)SC2)cc1	-3.5	4.0	3.5	4.5	-0.4	-6.5	-6.8	-1.8
Cc1ccc(C(=O)COC(=O)CCN2C(=O)C3C4CCC(C4)C3C2=O)cc1[N+](=O)[O-] (stereo unspecified)	3.6	1.6	1.0	-7.3	0.0	4.4	4.0	-9.3
CC1=C(Sc2ccccn2)C(=O)NC(C)(C)C1	0.2	3.8	-0.1	-8.9	0.1	3.3	-7.8	-3.0
O=CNCC(=O)NC1CCCCCC1	-1.0	6.2	0.0	-6.5	-0.1	-1.7	-9.9	0.8
CCSc1nc2ccccc2n1CC(=O)N1CCCCC1	0.3	1.0	-3.5	0.6	0.8	-0.4	?	-3.3
Fc1cccc(NC(=S)N2CCCCC2)c1	?	3.5	-2.2	-6.3	0.2	-1.7	-8.0	.
O=C(NNC(=S)Nc1ccccc1)c1cccs1	-1.9	4.2	2.4	-11.5	1.1	5.1	-1.9	-0.7
COc1ccccc1NC(=O)Cn1cnc2c(cnn2-c2ccc(C)c(C)c2)c1=O	3.4	-4.2	-1.2	-3.8	0.6	0.2	0.0	-4.9
COC(=O)c1ccc(N(C(=O)c2ccco2)C(C(=O)NC2CCCC2)c2ccco2)cc1 (stereo unspecified)	-3.8	4.4	0.3	5.0	-0.3	1.6	-22.6	-0.5
O=C(C1CCN(Cc2ccc(OCc3ccccc3)cc2)CC1)N1CCCC1	4.9	3.9	4.2	-4.1	-0.8	-4.1	-5.7	-8.3
O=C(CNC(=O)c1ccc(Br)o1)NCc1cccc(Cl)c1	-0.8	1.8	0.2	-13.0	-0.3	0.1	6.8	-1.5
CCN(CC)S(=O)(=O)c1ccc(Cl)c(C(=O)NC2CCCC2)c1	-1.0	1.0	1.7	-3.9	0.1	-0.1	27.0	1.2

(listing goes on)
SMILES	RanGTP-Impb inh	UCH37 inh	LANA-H2B inh	T cruzi repl	Bfl-1 A1 inh	B2AR ag	Calb FLC	Beta apoptosis
COc1ccc(NC(=O)CCN2CCN(Cc3ccccc3)CC2)c(OC)c1	3.6	5.0	-4.4	10.1	0.4	3.1	2.1	2.6
COc1ccc(-c2nc3c(-c4ccc(F)cc4)cnn3cc2C)cc1F	-5.2	-1.7	1.5	17.5	-0.3	2.0	6.1	2.2
O=C(N[C@@H]1CCC(=O)N(CC[C@H](Sc2ccccc2)c2ccccc2)CC1)OCc1ccccc1	-2.1	-0.9	-0.4	43.6	0.1	-6.8	-7.4	4.0
COCCn1c(SCC(=O)N2CCCC2=O)nc2sc(C)c(C)c2c1=O	-3.2	-0.6	2.6	-7.5	0.0	-6.7	-8.3	-1.3
COc1ccc2c(c1)nc(NCCO)n2C	3.4	5.0	-2.7	-7.6	0.1	10.5	-0.7	-4.3
CNC(=O)[C@@]1(Cc2ccccc2)C=C[C@@H](C)N1C(=O)OC	2.7	0.7	5.1	-3.3	0.5	2.7	-8.8	-5.0
Cn1c(=O)c2cc(S(=O)(=O)NC(C(=O)N3CCCCCC3)c3ccccc3)ccc2n(C)c1=O (stereo unspecified)	.	2.5	3.9	.	0.0	4.1	.	-1.9
O=C(/C=C\c1cn(-c2ccccc2)nc1-c1cccs1)N1CCOCC1	-0.6	-14.3	-1.3	4.0	-1.1	-13.3	-4.0	0.3
COc1ccc(-n2nc([N+](=O)[O-])c(=NCCc3ccc(C)cc3)n2O)cc1	-4.5	2.9	-0.6	50.4	0.2	-6.7	10.9	3.3
Cn1cc(SCC(=O)N2CCN(c3ccccc3)CC2)c2ccccc21	-2.4	1.6	2.3	-0.3	0.7	13.8	3.9	-6.0
O=C(Nc1ccc(Cl)cc1)c1ccc(CN2CCc3ccccc3C2)cc1	2.2	6.6	-2.9	6.1	-1.5	-3.6	2.7	2.9
N#CC[n+]1cc(-c2ccc(Cl)cc2)n2c1CCC2	3.2	3.4	0.2	-5.7	0.6	-3.6	3.2	-1.8
CCCCNC(=O)OC1CCS(=O)(=O)C1 (stereo unspecified)	-0.5	-0.7	-1.2	-4.7	-0.3	-1.6	1.7	-7.8
Cc1cccc(NS(=O)(=O)c2cccc(C(=O)NCCCN3CCOCC3)c2)c1	-3.1	0.9	-1.6	-2.5	-0.7	9.3	2.2	.
CCN(CC)S(=O)(=O)c1cc(C(=O)OCC(=O)Nc2cccc(S(=O)(=O)N(C)C)c2)ccc1F	-0.2	4.7	4.7	-10.7	-0.1	1.7	-7.2	-3.4
CCc1ccc(C2CC(c3ccccc3C)n3nc(N)nc3N2)cc1 (stereo unspecified)	-1.2	0.3	3.0	22.3	0.7	3.1	1.9	-5.6
CN(Cc1ccccc1)C(=O)COc1cccnc1[N+](=O)[O-]	-5.1	4.3	-1.3	-0.1	0.3	-4.4	0.6	3.6
COc1cc(-c2nc3ccccn3c2/N=C/c2ccccc2)ccc1O	2.2	.	4.3	-5.6	-1.9	-16.6	11.3	-13.5
O=C1c2ccccc2C(=O)N1CCCCn1c(=O)oc2ccccc21	4.6	-0.3	2.6	4.9	0.1	-16.1	-1.8	0.8
CN(Cc1nc(-c2cccs2)no1)CC(O)c1ccccc1 (stereo unspecified)	-2.7	6.5	0.3	1.2	0.6	1.4	-2.5	-7.5
Cc1noc(C)c1NC(=O)N1CCN(Cc2ccccc2)CC1	-4.3	5.3	1.6	-4.2	1.5	-5.1	0.5	7.0
COc1cccc(CC(C(=O)Nc2cc(C)ccc2C)c2nn[nH]n2)c1OC (stereo unspecified)	1.5	0.3	0.7	4.9	0.9	-0.9	-0.7	-4.9
COC(=O)CCN(C1CCCCC1)S(=O)(=O)c1ccc(S(=O)(=O)N2CCCCC2)cc1	0.6	3.3	-3.5	3.4	-0.5	23.0	9.3	1.5
CC(NC(=O)c1ccc(NC(=O)CC2SC(N3CCCC3)=NC2=O)cc1)c1ccc(S(N)(=O)=O)cc1 (stereo unspecified)	5.9	-0.3	-1.4	-0.7	-0.3	-1.8	8.4	1.9
O=S(=O)(c1ccc(Cl)cc1)N1CCC(N2CCOCC2)CC1	-1.3	5.5	6.2	3.4	-0.6	8.9	12.5	-9.5

The list goes on:
SMILES	RanGTP-Impb inh	UCH37 inh	LANA-H2B inh	T cruzi repl	Bfl-1 A1 inh	B2AR ag	Calb FLC	Beta apoptosis
O=c1ccc2c(-c3ccccc3)c3ccc(O)cc3oc-2c1	i	14.9	61.2*	-3.6	-0.4	-399.1	8.9	10.5
CCn1c(SCCOc2ccc(OC)cc2)nnc1C(CO)NC(=O)c1ccc(OC)cc1 (stereo unspecified)	2.1	1.6	4.0	-7.3	-0.1	3.3	1.2	-2.4
Cc1ccc(N(C(=O)c2nsc(Cl)c2Cl)C(C(=O)NC2CCCC2)c2ccc(O)cc2)cc1C (stereo unspecified)	3.0	0.9	2.6	47.7	-0.2	7.4	-4.7	12.0
Cn1cc(Br)c(C(=O)NC(=S)Nc2ccc(S(N)(=O)=O)cc2)n1	5.5	3.5	6.1	-1.7	0.2	6.2	-8.4	-2.7
O=C(Nc1c(Cl)cccc1Cl)c1cc(-c2ccco2)on1	-1.2	6.2	2.3	10.0	-1.5	-2.5	-27.0	-3.4
COc1cccc(C(=O)NC2=NCCS2)c1	-3.5	3.3	11.8	-10.8	-2.3	-4.3	-19.0	-2.9
